Yeast UUG start: modulators of yeast start codon fidelity, primary screen, whole organism, S. cerevisiae, single point, plate reader; S. cerevisiae UUG-firefly luciferase reporter, luminescence/redox ratio; activity score, % at 18.7 µM; actives 0.13% (n = 350,000); AID 602363, 2012;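 active = replicate mean at a twofold rise or more, about +100% in these data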;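 note: firefly luciferase made from a UUG start codon reports start codon fidelity; reporter light over untreated wells divided by growth signal over untreated wells; some hits fall short of that in this replicate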
eIF4H FP inh: human eIF4H binding inhibitors, primary screen, translation initiation inhibitor project, biochemical, uHTS, fluorescence polarization; Eukaryotic translation initiation factor 4H (Homo sapiens), Q15056; actives 0.94% (n = 290,000); eIF4H fluorescence polarization binding assay; inhibition, % at 35 µM;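 active = 50% or more with normal probe brightness, or confirmed in later tests; inconclusive = above 50% with abnormal brightness, or retests that disagree; inactive = below 50% or failed in later tests; about a fifth of its hits are not listed in these tables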;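 note: calls also rest on retests at 20 µM and on dose response follow-up; 0% = protein and probe with vehicle and 100% = probe without protein; strong numbers were not always called active; many hits fall short of the cut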
HIV Env fusion: inhibitors of HIV-1 Env-driven cell-cell fusion, primary screen, HeLa-JRFL effector, CEM21 target cells, luciferase. inhibition, % at 12.3 µM. actives 1.1% (n = 360,000). AID 651610, 2012;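 active = mean replicate inhibition score of at least 50 and every replicate individually at or above 50; inconclusive = only one of the two criteria met; inactive = mean below 50 and not all replicates reaching 50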;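 note: 0% = plate neutral controls and 100% = maraviroc near 300 nM; one replicate is shown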
CSC inhib: cancer stem cell viability inhibitors, primary screen, luminescence; inhibition, % at 7.5 µM; actives 1.1% (n = 300,000); cancer stem cell-like cells viability;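 active = mean at 75% or more and at least half the replicates too; inconclusive = mean and replicates disagree; tested in HMLE shEcad cells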;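 note: 0% = median of negative and 100% = median of positive control wells; the first replicate is given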
MT1-MMP act inh: blockers of MT1-MMP proenzyme processing, primary screen, HT1080 RFP-PRO-GFP cells, GFP/RFP fluorescence | actives 0.061% (n = 360,000) | Matrix metalloproteinase-14 (Homo sapiens), P50281 | GFP/RFP ratio fluorescence, overnight; percent of plate control window, DMSO zero | GFP/RFP ratio change, % at 20 µM | AID 651647, 2012;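 active = GFP/RFP ratio change of at least 30% with cell ATP level not reduced by more than half and red fluorescence within 50% of control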; note: strong numbers were not always called active
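system = RFP-PRO-GFP reporter HT1080 cells | dosing = 20 µM single dose, 1% DMSO | timing = overnight cell settling, then overnight compound exposure, 37 °C, 5% CO2 | read-out basis = GFP/RFP fluorescence ratio | controls = DMSO and RFP-L50D-GFP cell wells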
PABP polyA inh: PABP poly(A) RNA binding inhibitors, primary screen, biochemical, fluorescence polarization, uHTS; Polyadenylate-binding protein 1 (Homo sapiens), P11940; inhibition, % at 35 µM; actives 1% (n = 290,000);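 active = 50% or more with normal probe brightness, or confirmed in later tests; inconclusive = above 50% with abnormal brightness, or retests that disagree; inactive = below 50% or failed in later tests; about a fifth of its hits are not listed in these tables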;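 note: calls also rest on retests at 20 µM and on dose response follow-up; controls were probe without protein and protein plus probe with vehicle; some compounds called inactive have numbers as strong as hits; many hits fall short of the cut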
Target sequence (P11940 whole entry, looked up): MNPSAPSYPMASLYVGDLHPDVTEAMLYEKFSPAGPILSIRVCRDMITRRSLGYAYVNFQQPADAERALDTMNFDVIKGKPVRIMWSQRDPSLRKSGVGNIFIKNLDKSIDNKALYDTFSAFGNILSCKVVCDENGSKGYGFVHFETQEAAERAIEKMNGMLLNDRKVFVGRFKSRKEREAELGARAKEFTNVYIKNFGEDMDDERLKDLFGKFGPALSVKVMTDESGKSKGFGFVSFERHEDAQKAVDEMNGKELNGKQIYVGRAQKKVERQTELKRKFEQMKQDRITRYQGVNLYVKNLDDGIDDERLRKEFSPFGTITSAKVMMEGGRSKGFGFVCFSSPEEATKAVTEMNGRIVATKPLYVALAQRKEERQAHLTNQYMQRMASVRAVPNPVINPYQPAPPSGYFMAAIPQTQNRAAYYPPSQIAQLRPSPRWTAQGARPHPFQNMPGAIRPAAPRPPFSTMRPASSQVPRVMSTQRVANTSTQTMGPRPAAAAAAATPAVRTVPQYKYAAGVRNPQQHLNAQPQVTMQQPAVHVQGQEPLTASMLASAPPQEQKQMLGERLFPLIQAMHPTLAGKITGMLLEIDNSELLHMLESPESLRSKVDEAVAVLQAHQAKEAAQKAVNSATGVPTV
Rce1 inhib: yeast Rce1p protease inhibitors, primary screen, biochemical, fluorescence, cell-free homogeneous; yeast membranes, quenched prenylated peptide cleavage fluorescence; calls only; actives 0.27% (n = 290,000); AID 2563, 2010;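 active = fall in fluorescence gain of 50% or more versus controls, with final raw signal at or below 3038400; inconclusive = same 50% fall but final raw signal above 3038400; inactive = fall in fluorescence gain under 50%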;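 note: plate controls were neutral control wells for no effect and wells lacking membranes for full effect; tested at 10 µM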
Target sequence (Q03530 whole entry, looked up): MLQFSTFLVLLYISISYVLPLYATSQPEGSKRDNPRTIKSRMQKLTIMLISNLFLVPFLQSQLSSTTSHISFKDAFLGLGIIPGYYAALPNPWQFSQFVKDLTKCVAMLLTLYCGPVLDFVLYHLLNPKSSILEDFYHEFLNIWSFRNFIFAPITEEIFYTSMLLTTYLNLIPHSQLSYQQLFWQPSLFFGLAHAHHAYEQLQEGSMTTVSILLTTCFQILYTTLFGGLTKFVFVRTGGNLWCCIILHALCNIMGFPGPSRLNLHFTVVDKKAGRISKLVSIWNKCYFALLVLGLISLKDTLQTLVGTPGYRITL
MT1-MMP act inh RFP: further read-out of MT1-MMP act inh, marked with its call; RFP signal change, %; measured here: RFP expression control read;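 0 = vehicle wells; hits needed this value within 50% of zero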
The depositor's hits bear a star; i = inactive; ? = inconclusive; nt = not tested or not shown; & = joins results of further samples.

molecule	Yeast UUG start	eIF4H FP inh	HIV Env fusion	CSC inhib	MT1-MMP act inh	MT1-MMP act inh RFP	PABP polyA inh	Rce1 inhib
COc1cc(S(=O)(=O)N2CCCCC2)ccc1NC=O	nt	-7.8	nt	6.6	2.0	3.5	5.3	i
COc1ccc(N2CCN(C(=O)c3ccc(F)cc3)CC2)c([N+](=O)[O-])c1	nt	4.9	-7.5	-8.4	2.3	-0.7	0.9	i
CCN(Cc1ccc(Cl)s1)C(=O)c1cccc(OCc2c(C)noc2C)c1	11.5	nt	nt	0.9	7.0	-12.0	nt	nt
O=C(COc1ccccc1)Nc1cccc(S(=O)(=O)N2CCCC2)c1	-21.3	nt	-4.0	nt	2.0	-2.9	nt	nt
Cc1ccc(CNC(=O)/C=C/c2c(Cl)cccc2Cl)cc1	1.7	-3.5	-15.2	6.2	-1.0	0.5	-6.6	i
COCCn1nnnc1C(c1cccs1)N1CCN(c2nc3ccccc3s2)CC1 (centres undefined)	0.2	-8.6	nt	0.6	0.6	-5.9	1.1	i
COc1cc(OC)c(C(=O)Nc2ccc(S(=O)(=O)Nc3ncccn3)cc2)cc1OC	nt	3.9	-10.4	-8.6	7.3	7.2	-11.1	i
COc1ccccc1OCCNC(=O)CCNS(=O)(=O)c1ccc(C)cc1	-24.3	nt	3.3	nt	1.3	3.6	nt	nt
O=C(/C=C/c1ccco1)Nc1ccccn1	-38.6	?	nt	48.5	2.0	-5.1	8.4	i
O=C(NC12CC3CC(CC(C3)C1)C2)c1cc([N+](=O)[O-])ccc1Cl	-24.4	6.0	8.4	-12.7	-0.7	-6.5	-1.8	i
COC(=O)c1ccccc1NC(=O)Nc1cc(C)cc(C)n1	nt	5.2	-6.2	0.2	-1.9	1.0	5.9	i
O=C(c1ccccc1)N(c1ccccc1)C1C=CS(=O)(=O)C1 (centres undefined)	-19.8	-4.5	nt	-9.8	0.5	1.4	1.9	i
O=C(COC(=O)CNC(=O)C1CCCCC1)NCc1ccccc1	-11.8	nt	i	nt	-3.2	1.0	nt	nt
COc1cccc(CNC(=O)COC(=O)C2CC3CCCC(C2)C3=O)c1 (centres undefined)	nt	nt	-0.6	-5.0	-4.7	3.0	nt	i
COc1ccc(-c2noc(N3CCC(C(=O)NC(C)c4ccccc4)CC3)n2)cc1 (centres undefined)	-5.7	-3.1	nt	3.1	-1.5	-21.2	4.5	i
CC(NC(=O)C1CCCN(S(=O)(=O)c2cnc[nH]2)C1)c1ccccc1 (centres undefined)	-22.1	-4.0	5.7	-5.2	-4.8	7.1	4.0	i
C#CCn1c(=NC(=O)c2ccc(Cl)s2)sc2cccc(OC)c21	-6.7	-4.6	1.8	14.1	-0.9	-5.7	-2.9	i
COc1ccccc1N1CCN(CCS(=O)(=O)c2cc(Cl)ccc2Cl)CC1	3.1	nt	-12.0	nt	-2.0	-4.6	nt	nt
O=C(c1csc2c1CCCC2)N1CCN(c2ccccc2)CC1	6.5	-1.3	nt	-10.1	-2.9	3.6	7.2	i
COc1ccc(OC)c2sc(NC(=O)c3ccc(S(=O)(=O)N(C)C)cc3)nc12	-18.0	-3.8	-3.2	14.5	3.7	3.6	1.4	i
N=C(N)SCc1ccc(O)c([N+](=O)[O-])c1	-16.1	-5.6	-4.1	4.9	0.0	-1.2	-0.6	i
CCC12CN3CCN(CC(C3)/C1=N\NC(=O)c1ccc(Cl)cc1)C2	-10.8	2.3	-3.0	-6.6	-2.3	1.0	?	i
CCS(=O)(=O)N1CCN(S(=O)(=O)c2ccc(Cl)s2)CC1	7.1	-13.0	22.4	-12.1	2.8	3.4	3.8	i
CCCCS(=O)(=O)N1CCCC(C(=O)Oc2ccccc2OC)C1 (centres undefined)	6.1	-3.8	1.6	-5.7	-2.5	1.8	-3.3	i
CCCCNC(=O)N(O)C1N(/N=C/c2ccccc2O)C(=S)SC1(C)C (centres undefined)	-22.8	4.1	89.7*	8.1	-2.9	-1.9	7.4	i
CCCCNC(=O)N1CCN(Cc2cccc(F)c2)CC1	-9.9	1.9	-14.3	-11.1	2.8	4.9	3.4	i
COc1ccccc1-n1cnnc1SCC(=O)Nc1nc(C)c(Cl)cc1Cl	-13.1	-5.9	nt	-14.6	3.8	3.9	-0.9	i
c1cnc2c(c1)ccc1cccnc12	-32.5	14.0&10.7	-36.8&-5.9	2.9	-2.8&2.2	-8.1&-2.8	1.5&0.0	i
Cc1ccc(S(=O)(=O)N2C[C@H]3C(=O)C[C@@H](c4ccccc4C)N(S(=O)(=O)c4ccc(C)cc4)[C@H]3C[C@H]2c2ccccc2)cc1	-18.2	nt	-6.3	nt	-5.7	-4.5	nt	nt
Cc1ccc(S(=O)(=O)Oc2ccc(C)cc2/C=N/N=C2\NC(=O)C(C)S2)cc1 (centres undefined)	-0.7	-0.1	-33.1	-8.3	-7.5	-7.8	-10.8	i

Only Yeast UUG start and MT1-MMP act inh, for some of the entries so far:
| smiles | Yeast UUG start | MT1-MMP act inh |
| --- | --- | --- |
| Cc1ccc(S(=O)(=O)N2C[C@H]3C(=O)C[C@@H](c4ccccc4C)N(S(=O)(=O)c4ccc(C)cc4)[C@H]3C[C@H]2c2ccccc2)cc1 | -18.2 | -5.7 |
| N=C(N)SCc1ccc(O)c([N+](=O)[O-])c1 | -16.1 | 0.0 |

The listing continues.
molecule	Yeast UUG start	eIF4H FP inh	HIV Env fusion	CSC inhib	MT1-MMP act inh	MT1-MMP act inh RFP	PABP polyA inh	Rce1 inhib
O=C(CS(=O)(=O)c1ccccc1)Nc1nnc(-c2cccs2)o1	-12.5	nt	4.1	-9.3	2.9	-0.1	nt	i
O=C(CN1C(=O)NC2(CCOc3ccccc32)C1=O)c1ccc(Cl)s1 (centres undefined)	7.2	nt	-0.4	-1.1	-0.5	-0.1	nt	nt
COc1ccc(N2CCN(Cc3cc(=O)c(OCC(=O)Nc4ccccc4)co3)CC2)cc1	0.0	nt	2.1	-7.9	-2.3	-11.3	nt	i
CCC(C)NC(=O)CN(c1ccc2c(c1)OCO2)S(=O)(=O)c1c(C)n[nH]c1C (centres undefined)	-16.9	6.6	-20.3	-11.8	-2.8	2.6	8.4	i
Cc1ccc(/C=N/NC(=S)NC2CCS(=O)(=O)C2)cc1 (centres undefined)	-5.9	3.6	nt	6.3	-1.3	-3.0	-3.5	i
O=C(CCN1C(=O)/C(=C/c2ccc(F)cc2)SC1=S)Nc1cc([N+](=O)[O-])ccc1O	-4.9	22.7	0.8	25.0	10.4	-5.6	-7.9	i
CC1CN(C(=O)COC(=O)c2cnc(Cl)c(Cl)c2)CC(C)O1 (centres undefined)	-13.8	nt	i	15.3	-0.3	-1.8	nt	nt
COc1ccc(NC(=S)Nc2ccccc2C(F)(F)F)cc1	nt	-3.4	-11.3	-7.4	1.0	-2.4	2.0	i
CCOC(=O)c1ccc2c(c1)nc(SCC(=O)N1CCCCC1)n2CC	6.7	-3.1	nt	-8.6	0.2	-5.1	10.8	i
Cc1cccc(OCC(O)CN2C(C)(C)CC(O)CC2(C)C)c1 (centres undefined)	-49.2	0.3	-10.7	nt	0.7	-0.9	-6.8	nt

An excerpt from above in order of their number in Yeast UUG start, ascending.
canonical_smiles	Yeast UUG start
CCCCNC(=O)N(O)C1N(/N=C/c2ccccc2O)C(=S)SC1(C)C (centres undefined)	-22.8
O=C(COc1ccccc1)Nc1cccc(S(=O)(=O)N2CCCC2)c1	-21.3
O=C(c1csc2c1CCCC2)N1CCN(c2ccccc2)CC1	6.5

Continued:
molecule	Yeast UUG start	eIF4H FP inh	HIV Env fusion	CSC inhib	MT1-MMP act inh	MT1-MMP act inh RFP	PABP polyA inh	Rce1 inhib
CCc1sc(C(=O)N2CCc3cc(OC)c(OC)cc3C2CC(=O)O)cc1C (centres undefined)	-4.1	nt	4.1	4.0	0.7	3.8	nt	nt
COc1cncc(-c2cnc3sc(NCCc4ccccn4)nn23)c1	-15.1	nt	61.5*	nt	-32.8	-17.5	nt	nt
Cc1ccc(-c2noc(CCCN3C(=O)c4ccccc4C3=O)n2)cc1	-20.9	-6.9	6.3	-2.5	0.7	0.9	-2.6	i
Cc1ccc(C(=O)OCC(=O)Nc2ccc3c(c2)OCCO3)cc1C	-12.5	nt	-21.5	nt	4.7	1.0	nt	nt
CC1CCN(C(=O)CCc2nnc3ccc(NCCCN4CCCC4=O)nn23)CC1	-6.5	7.7	-2.1	nt	-1.3	1.5	4.4	i
COc1ccc(CN2C(=NC(=O)C3CCCO3)SC3CS(=O)(=O)CC32)cc1 (centres undefined)	-20.5	4.8	-0.2	2.6	-3.5	-2.6	-7.1	i
Cn1c(=O)cc(OCC(=O)Nc2ccccn2)c2ccccc21	-14.5	1.8	19.0	-1.2	-0.8	-2.8	-9.1	?
CCN(CC)c1ccc(N2C(=O)/C(=C\c3cccs3)SC2=S)cc1	nt	-6.6	nt	-9.6	4.4	5.0	0.7	i
c1ccc(CN2CCC3(CCCc4ccccc43)CC2)cc1	-6.4	nt	-21.1	45.0	1.3	1.9	nt	nt
CCn1c(NCc2cc(OC)ccc2OC)nc2ccccc21	-2.3	6.1	-22.7	-4.5	-1.0	-1.2	-1.5	i
COc1ccc(Cl)cc1-n1c(C)cc(C(=O)OCC(=O)N2CC(=O)Nc3ccccc32)c1C	nt	2.9	-12.4	-16.5	-3.5	-6.8	-10.0	i
O=C(c1cc(-c2ccccc2Cl)nc2ccccc12)N1CCN(c2ccccn2)CC1	-18.1	nt	nt	8.6	-11.7	-17.1	nt	nt
COc1cc(/C=N/Nc2nc3ccccc3s2)cc([N+](=O)[O-])c1O	-23.0	-5.9	2.7	-0.8	7.5	-3.9	20.9	i
Cc1cccc(CCNS(=O)(=O)c2ccc3c(c2)CCN3C(=O)CCC(=O)O)c1	-4.8	10.5	nt	-3.0	-1.7	-1.2	10.6	i
CCN1CCN(CC(=O)Nc2sc3c(c2C#N)CCC3)CC1	nt	17.1	0.5	58.2	-2.1	-4.0	15.0	i
N#Cc1cccc(CN2CCC(=O)N([C@H](CO)c3ccccc3)CC2)c1	-6.3	0.2	10.0	-0.4	-1.3	-0.9	5.7	i
O=C(NNC1CC(=O)N(c2ccc(Cl)cc2)C1=O)c1ccccc1Cl (centres undefined)	nt	-4.9	2.4	-3.3	-1.2	-4.3	-6.8	i
O=c1c2c(-c3ccc([N+](=O)[O-])cc3)ccnc2[nH]n1-c1ccccc1	-13.6	3.4	9.1	nt	5.6	-0.1	7.1	i
CC(=O)NC(c1cccc(F)c1)c1nc(-c2ccoc2)cs1 (centres undefined)	-6.7	nt	-2.3	nt	-0.8	-1.4	nt	nt
CCCCOC(=O)c1ccc(NC(=O)C(=O)NCc2ccncc2)cc1	-8.9	4.8	nt	-3.3	-4.6	-12.1	-0.5	i
COc1ccc(/C=C/C(=O)OCC(=O)Nc2cc(C(N)=O)cc(C(N)=O)c2)cc1	nt	-1.0	-2.8	2.6	1.1	0.1	3.6	i
Cc1ccc(CNC(=O)C2CCC(=O)N(CCc3ccccc3)C2)s1 (centres undefined)	-1.2	-6.5	-19.0	-3.5	3.6	3.8	9.8	i

Bioassay records deposited in PubChem by several laboratories.

These rows are one share of the data; the hit share may differ from the screen's.
